# Compound activity deposited in PubChem BioAssay by National Center for Advancing Translational Sciences (NCATS).
# N370S GC: inhibits or activates N370S mutant glucocerebrosidase; P04062; N370S GC spleen homogenate, 4MU-glucoside fluorescence; Potency, µM (titrated, usually from 59.4 µM), for the others: at the top dose activity change, negative = inhibition, usual class: inhibitors; 330,000 compounds, 0.092% hits; active means well fitted inhibition curve with a large enough effect;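 further: 0% = full enzyme activity and -100% = no enzyme basal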
# * marks the source's active call; other numbers are inactive results; & = joins results of further samples; [ ] = remark or other dose. Potency means the concentration at half of the fitted maximal effect. Not all compounds are listed, and most or all hits are left out here.
SMILES,N370S GC
CC(C)(C)NC(=S)NCC1CC1,1%
NC(=O)COC(=O)CN1C(=O)C2CCCCC2C1=O (stereo not given),-8%
CN(C)c1cccc(C(=O)NCc2ccccc2)c1,22%
O=C(O)C1CCN(c2c([N+](=O)[O-])cc(C(F)(F)F)cc2[N+](=O)[O-])CC1,-1%
O=C(c1cn(CC(=O)N2CCCC2)c2ccccc12)C1CCCCC1,-1%
CC(C)NC[C@H](O)COc1cccc2ccccc12,2%&1%&-10%
CCOc1ccc(N(CC(=O)NC2CCCCC2)S(=O)(=O)c2ccc(C)cc2)cc1,-2%
CCNC(=O)/C(=C/c1ccco1)NC(=O)/C=C/c1ccccc1,9%
CC(C)NCC(O)c1cc(O)cc(O)c1 (stereo not given),3%&20%&-12%
COc1ccc(C(=O)NCC(=O)N2CCCCC2)cc1OC,1%
N#Cc1c(N)nc(SCC(=O)NC2CCCCC2)c(C#N)c1-c1ccc(Cl)cc1,-7%
COc1ccccc1NS(=O)(=O)c1cc(N2Cc3ccccc3C2=N)ccc1N1CCOCC1,-8%
O=C(CSc1nnc(-c2cccnc2)n1Cc1ccco1)NCc1ccc2c(c1)OCO2,3%
Cc1cccnc1NC(=O)Nc1cccc(C(F)(F)F)c1,7%
CC1=Nc2cc(C(=O)NCc3ccco3)ccc2Sc2ccc(C)cc21,-2%
COc1ccc(CCNC(=O)CC2SC(=NCCC(C)C)NC2=O)cc1OC (stereo not given),-7%
Cn1c(N)c(C(=O)COC(=O)Cc2ccsc2)c(=O)n(C)c1=O,1%
CC1(O)CC(=O)N(c2ccccc2)O1 (stereo not given),-7%[12.8 µM]
COc1cccc(NC(=O)C2CCN(C(=O)[C@@H]3Cc4ccccc4CN3)CC2)c1,-11%
Cc1csc(SCC(=O)Nc2cc(S(=O)(=O)N3CCCC3)ccc2Cl)n1,-17%
CCOc1ccc(NS(=O)(=O)c2ccc(C(=O)N3CCN(C(C)=O)CC3)cc2)cc1,-19%
NC(=O)c1ncn([C@H]2O[C@@H](CO)[C@@H](O)[C@@H]2O)n1,4%[21.6 µM]
COc1cc(Sc2ccc(C)cc2)c(OC)cc1N,0%
COc1ccc(C2NC(=O)NC(O)(C(F)(F)F)C2C(=O)c2ccc(F)cc2)cc1 (stereo not given),5%
O=C(c1ccc(S(=O)(=O)N2CCCC2)cc1)N(c1ccc(F)cc1)C1C=CS(=O)(=O)C1 (stereo not given),-13%

# Grouped by structure: those above containing four or more nitrogen atoms
SMILES,N370S GC
N#Cc1c(N)nc(SCC(=O)NC2CCCCC2)c(C#N)c1-c1ccc(Cl)cc1,-7%
COc1ccccc1NS(=O)(=O)c1cc(N2Cc3ccccc3C2=N)ccc1N1CCOCC1,-8%
O=C(CSc1nnc(-c2cccnc2)n1Cc1ccco1)NCc1ccc2c(c1)OCO2,3%
NC(=O)c1ncn([C@H]2O[C@@H](CO)[C@@H](O)[C@@H]2O)n1,4%[21.6 µM]

# The main list resumes; the two compounds before the break are reprinted first.
SMILES,N370S GC
COc1ccc(C2NC(=O)NC(O)(C(F)(F)F)C2C(=O)c2ccc(F)cc2)cc1 (stereo not given),5%
O=C(c1ccc(S(=O)(=O)N2CCCC2)cc1)N(c1ccc(F)cc1)C1C=CS(=O)(=O)C1 (stereo not given),-13%
CC(C)OP(=O)(OC(C)C)C(Nc1ccccc1)c1ccc2c(c1)OCO2 (stereo not given),5%
CNC(=O)NC(=S)NC(=O)c1ccccc1Cl,-6%
CCn1c(NC(C)=O)nc2ccccc21,-1%
Cc1cc(OCC(=O)O)c2cccc(C)c2n1,2%
COCc1cc(/C=N\NC(=O)Cc2ccc(Cl)cc2)ccc1OC,-17%
Clc1ccc(-c2noc(/C=C/c3ccccc3)n2)cc1,6%
FC(F)(F)c1nc2ccccc2[nH]1,-2%
O=C(Nn1c(-c2ccc(F)cc2)nc2ccccc2c1=O)C1CCCCC1,-19%
CCOC(=O)C1=C(N)n2c(s/c(=C\c3ccncc3)c2=O)=C(C(=O)OCC)C1c1ccncc1 (stereo not given),4%
COc1ccc(C(=O)Nn2cnnc2)cc1,-4%
COCCCNC(=S)NCCNc1nc2cc(C)c(C)cc2cc1C#N,5%
COc1ccc(CC(=O)c2ccc(O)cc2O)cc1OC,-4%
CS(=O)(=O)CCC(C(=O)Nc1ccc2c(c1)OCO2)N1Cc2ccccc2C1=O (stereo not given),-4%
Cc1csc(NC(=O)C2C3C=CC(C3)C2C(=O)O)n1 (stereo not given),11%
CC(CCc1ccccc1)NC(=O)CSc1nnnn1C (stereo not given),1%
CCO[C@H]1OC(C(=O)O)=C[C@@H](c2ccc(C(F)(F)F)cc2)[C@@H]1CCCO,-4%
COc1cc(/C=N/NC(=O)c2csc3c2CCCC3)ccc1OCCN1CCOCC1,-9%
CCCCn1c(NCCO)nc2ccccc21,-13%
CCN1CCN(C(=O)CCCCCn2c(=O)[nH]c3cc(C(=O)OC)ccc3c2=O)CC1,10%
NC(=O)c1ncn([C@@H]2O[C@H](CO)[C@@H](O)[C@H]2O)n1,15%&3%&6%
CN(C)/C=C(/C(=O)c1ccc(F)cc1)S(=O)(=O)c1ccc(F)cc1,2%
Cn1nccc1C(=O)Nn1cnnc1,-4%
Cc1ccc(Nc2nc(N)nc(CCl)n2)cc1,-1%
O=C(c1ccco1)N1CCN(S(=O)(=O)c2ccc3[nH]c(=O)oc3c2)CC1,-18%
CCn1c(SCC(=O)OC(C)C)nnc1-c1ccccc1OC,-5%

# Brought forward from above: 3 entries; new compounds follow.
SMILES,N370S GC
Cc1ccc(Nc2nc(N)nc(CCl)n2)cc1,-1%
O=C(c1ccco1)N1CCN(S(=O)(=O)c2ccc3[nH]c(=O)oc3c2)CC1,-18%
CCn1c(SCC(=O)OC(C)C)nnc1-c1ccccc1OC,-5%
CN(CC(=O)NCCN1CCCCCC1)S(=O)(=O)c1cccc2nsnc12,16%
O=C(O)c1nn(-c2ccccc2)ccc1=O,0%
COC(=O)c1ccc(C2C(Oc3ccccc3)C(=O)N2CCc2ccc(OC)c(OC)c2)cc1 (stereo not given),2%
O=C1CC(c2ccccc2)=Nc2ccccc2N1,-22%
C=CCn1c(Cc2c(C)[nH]c3ccccc23)nnc1SCC(=O)NCc1ccc(F)cc1,-6%
CCCS(=O)(=O)N1CCN(c2cc3c(cc2[N+](=O)[O-])n(C)c(=O)n3C)CC1,-4%
COC(=O)CCCC1=CC2=CC(=O)C(C)(OC(=O)c3cccs3)C(=O)C2=CN1CC(C)C (stereo not given),-6%[12.8 µM]
O=C(NCc1ccncc1)/C(=N/O)c1ccccc1,0%
C/C(=N\NC(=O)CSCc1ccccc1Br)c1cccc([N+](=O)[O-])c1,20%
COc1cc(/C=C/CO)cc(OC)c1O[C@@H]1O[C@H](CO)[C@@H](O)[C@H](O)[C@H]1O,2%
CCC(=O)NC(Nc1ccccn1)(C(=O)OC)C(F)(F)F (stereo not given),-1%
CC(C)c1ccc(CN2CC(C(=O)Nc3ccccc3)CC2=O)cc1 (stereo not given),-16%
O=S(=O)(c1cccs1)N1CCN(c2ccccn2)CC1,8%
O=C(N/N=C/c1ccco1)c1ccncc1,-8%
Cc1nc(=O)c(-c2ccccc2)c(C)n1CCO,6%
CCN(CC(=O)NC(C)C)Cc1nc2c(Br)cc(Br)cc2c(=O)[nH]1,8%
CCCNC(=O)Cn1c(=O)/c(=C\c2ccc(-c3ccc([N+](=O)[O-])cc3)o2)s/c1=C\C(=O)C(C)(C)C,-12%
CCNc1nnc(-c2ccncc2)s1,17%
O=C(CN1CCN(S(=O)(=O)c2ccc(F)cc2)CC1)Nc1cc(C(F)(F)F)ccc1Cl,17%
COCCNC(=O)c1c(NC(=O)c2nc(SC)ncc2Cl)sc2c1CCCC2,0%
O=C(COc1ccccc1Cl)N1CCN(c2ccc(F)cc2)CC1,-8%
CCOc1cc(NC(=S)NCCCN(C)C)c(OCC)cc1NC(=O)C1CC1,16%
Cc1ccc2cc3c(nc2c1)N(c1ccccc1)CC3,5%
C=CCNc1nc(C)c(C(C)=O)cc1C#N,9%
CCN1CCc2c(C#N)c(N3CCOCC3)nc(N3CCOCC3)c2C1,-30%
# Following part:
SMILES,N370S GC
CC1=C(C(=O)NCCN2CCN(C)CC2)C2(CCC(C)CC2)OC1=O (stereo not given),-7%
Cc1ccccc1OCCC(=O)Nc1ccc(F)c(Cl)c1,-1%
COc1ccc(Br)cc1S(=O)(=O)N1CC(C)OC(C)C1 (stereo not given),9%
CC(C)Cc1csc(NC(=O)c2ccccc2Cl)c1C(=O)O,2%
Nc1ccc(S(=O)(=O)Nc2ccccn2)cc1,10%
O=C(NC(Cc1c[nH]c2ccccc12)C(=O)N/N=C/c1ccc(Br)cc1)c1cccs1 (stereo not given),9%
O=C(CSc1ncn[nH]1)Nc1cccc2ccccc12,5%
CN(CCc1ccccc1)C1CCCN(S(=O)(=O)CC(F)(F)F)C1 (stereo not given),2%
N#Cc1cccc(NC(=O)Cc2ccsc2)c1,0%
CCC(CC)NC(=O)Nc1ccccc1C,-1%
CC1(C)Cc2c(sc3c2c(=O)n(Cc2ccccc2)c2nncn32)CO1,7%
CC(C)(C)NC(=O)[C@@H]1C[C@H]2CCCC[C@@H]2CN1C[C@H](O)[C@H](Cc1ccccc1)NC(=O)[C@@H](CC(N)=O)NC(=O)c1ccc2ccccc2n1,15%[21.6 µM]
CCCCOc1ccc(-c2csc(N)n2)cc1[N+](=O)[O-],4%
COc1ccc(-n2nnnc2SCC(=O)N2C(C)CCCC2C)c(OC)c1 (stereo not given),10%
CC1(C)Cc2nc(-c3ccccc3)nc(NNC(=O)c3ccco3)c2CO1,-3%
CN(C)c1c([N+](=O)[O-])ncn1C,5%
Cn1c(-c2ccc(F)cc2)cnc1SCC(=O)N1CCCc2ccccc21,5%
c1csc(Cc2nc3ccccc3[nH]2)c1,2%
CCn1c(C(=O)NCCCN2CCc3ccccc3C2)cc2sccc21,-6%
COC(=O)c1sc2nc(SCc3cccc(F)c3)n(N)c(=O)c2c1C,-2%
Cc1ccccc1C(=O)N1CCCN(C(=O)c2ccccc2C)CC1,2%
O=C(CN1CCN(Cc2ccccc2Cl)CC1)N/N=C/C=C/c1ccccc1[N+](=O)[O-],-20%
CC1(C)Cc2nc3sc(C(N)=O)c(N)c3cc2CO1,2%
O=C(Nc1ccc(CSc2ccccc2)cc1)c1ccco1,-12%
COC(=O)c1ccccc1NC(=O)CN1CCc2ccccc2C1,-5%

# Pulled by compound from the list above, 2 records:
SMILES,N370S GC
Cc1ccccc1OCCC(=O)Nc1ccc(F)c(Cl)c1,-1%
CC1=C(C(=O)NCCN2CCN(C)CC2)C2(CCC(C)CC2)OC1=O (stereo not given),-7%

# Remaining list, next part
SMILES,N370S GC
COc1cc(/C=C/C(=O)OCC(=O)c2c[nH]c3ccccc23)ccc1OC(F)F,7%
COc1ccc(NC(=O)CSc2nc(N)c3cc4c(nc3n2)CCCC4)c(OC)c1,6%
Cc1ccc(NC(=O)/C(Cl)=C/c2ccccc2)cc1C,0%
COc1ccc(OCc2n[nH]c(=S)o2)cc1,19%
CN(Cc1ccco1)C(=O)CSc1nc(C2CC2)n(-c2ccccc2)n1,2%
COc1ccc2c(CC(=O)Nc3ccccc3N3CCOCC3)coc2c1,11%
COc1ccc(N2C(=O)CCC(C(=O)N3CCCCC3)C2c2ccc(OC)c(OC)c2)cc1 (stereo not given),2%
O=C(Cn1cnc2scc(-c3ccc(F)cc3)c2c1=O)N1CCOCC1,-1%
Cc1cc(C)n(-c2nc(C)nc(N)n2)n1,2%
COc1ccc(CC(=O)Nc2nnc(C(C)C)s2)cc1,-3%
CCOc1ccc2nc(SCC(=O)Nc3ccc4c(c3)OCCO4)[nH]c2c1,14%
Cc1c(C)[n+](=O)c2c(n1[O-])C(Br)CCC2Br (stereo not given),11%
CCCCN1C(=O)/C(=C2/Sc3ccccc3N2C)S/C1=N\c1ncn[nH]1,22%
Cc1cccc(NC(NC(=O)c2cccnc2)C(Cl)(Cl)Cl)c1 (stereo not given),1%
O=C(CSc1nc2ccccc2s1)N/N=C/c1ccco1,11%
COC(=O)c1c(NC(=O)CN2CCN(c3ncccn3)CC2)sc(C(N)=O)c1C,0%
CC1Cc2ccccc2N1CC(=O)NC(=O)NCc1ccco1 (stereo not given),-17%
CSc1ccccc1Sc1cc(C(=O)O)c2ccccc2n1,3%
O=C(NCC1CCCO1)C1CC(=O)N(c2ccc(Cl)cc2)C1 (stereo not given),-3%
COc1ccc(C2NC(=O)NC(C)=C2C(=O)OCc2ccccc2)cc1 (stereo not given),-1%
CC(C)n1c(/C=C\[C@@H](O)C[C@@H](O)CC(=O)O)c(-c2ccc(F)cc2)c2ccccc21,-11%[21.6 µM]
O=c1cc(C(F)(F)F)nc(-n2[nH]c3c(c2=O)CCCC3)[nH]1,3%
N#CCCN(C(=O)CCl)c1cccc(Cl)c1,19%
CCCCNC(=O)NS(=O)(=O)c1ccc(C(=O)OC)o1,-8%
O=C(NCc1ccc(Cl)cc1)c1ccc(N2CCCC2=O)cc1,-3%
# (more compounds)
SMILES,N370S GC
O=C(NNC(=O)[C@H]1CC=CC[C@H]1C(=O)O)c1ccc(Cl)cc1Cl,-4%
O=C(NCc1ccccc1)c1onc(CSc2ccc(F)cc2)c1C(=O)NCCCN1CCOCC1,-27%
Cc1nn(C)cc1S(=O)(=O)N1CCN(c2cccc(Cl)c2)CC1,-1%
O=C(Nc1nc2ccccc2[nH]1)c1ccc(OC(F)F)cc1,-25%
O=C(Cc1cccc2ccccc12)NC(=S)Nc1cccc(C(=O)O)c1,-9%
COc1ccc(NS(=O)(=O)c2cccc(NC(=O)CCC(=O)c3ccc(Cl)cc3)c2)cc1,-2%
CCOC(=O)c1ccc(-c2csc(NC(=O)CN3CCC(C)CC3)n2)cc1,0%
CN(C)CCCNC(NC(=O)c1cccs1)C(Cl)(Cl)Cl (stereo not given),-3%
CCc1ccc(NC(=O)C2CC(=O)N=C(N)S2)cc1 (stereo not given),1%
CC(N=C(NC#N)Nc1ccncc1)C(C)(C)C (stereo not given),1%&-1%&3%&-1%&-9%
COC(=O)CCC(C)N1CCC(Oc2ccc(C(=O)N3CCCC3)cc2)CC1 (stereo not given),4%
O=C1S/C(=C\c2ccccn2)C(=O)N1Cc1ccccc1F,4%
O=c1c2nnn(Cc3ccccc3)c2ncn1C/C=C/c1ccccc1,30%
COCCNC(=S)N/N=C(\C)c1ccccc1OC,-10%
CCn1c(COc2ccc3c(c2)CCCC3)nnc1SCC(=O)Nc1nccs1,4%
